Screens (PubChem)
SARS PLP yeast – blocks SARS-CoV papain-like protease in a yeast assay; S. cerevisiae expressing SARS-CoV PLpro, growth rescue; control for the full effect not named in the record; Potency, µM (top dose mostly 32.9 µM), without a hit: at the highest dose activity, positive = growth rescue; hit rate 0.19% among 330,000; AID 485353; also: 0% is about no effect; nearly all actives have a fitted effect of over 55% in size; growth read by luminescence after 48 h
MARV entry inh – Marburg virus entry inhibition; Marburg virus pseudotyped entry inhibition, cell reporter; control for the full effect not named in the record; about a third of the inactives were read at about 46 µM; Potency, µM (top dose mostly 37.8 µM), for the others: top-dose activity change, negative = inhibition, hits mostly inhibitors; hit rate 1.8% among 300,000; AID 540276; active = well fitted inhibition curve with a large enough effect; inconclusive = small, poorly fitted or top-dose-only effect, or effect the other way; inactive = flat fitted curve, though single readings scatter; tested in HEK293 cells; about a fifth of its hits are not listed in these tables; also: % is scaled to controls: 0 for no effect and ±100 for the full control effect; luciferase read-out
Cruzain inh noDet – blocks cruzain activity in detergent-free assay; hit rate 2.3% among 200,000; Potency, µM, inactives show max response, negative = inhibition, hits mostly inhibitors; purified cruzain, Z-FR-AMC fluorescence, no detergent; AID 1476; P25779; active = well fitted curve in the direction sought with a large enough effect; inconclusive = small, poorly fitted or top-dose-only effect, or another doubt; inactive = no such curve, though single readings can be large; an effect the other way counts as inactive or inconclusive;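 also: plate controls were enzyme without inhibitor for no effect and buffer without enzyme for full effect; nearly all actives have a fitted effect of over 40% in size; top concentration of the series not given in the record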
Target sequence (P25779 123-467 limits assumed): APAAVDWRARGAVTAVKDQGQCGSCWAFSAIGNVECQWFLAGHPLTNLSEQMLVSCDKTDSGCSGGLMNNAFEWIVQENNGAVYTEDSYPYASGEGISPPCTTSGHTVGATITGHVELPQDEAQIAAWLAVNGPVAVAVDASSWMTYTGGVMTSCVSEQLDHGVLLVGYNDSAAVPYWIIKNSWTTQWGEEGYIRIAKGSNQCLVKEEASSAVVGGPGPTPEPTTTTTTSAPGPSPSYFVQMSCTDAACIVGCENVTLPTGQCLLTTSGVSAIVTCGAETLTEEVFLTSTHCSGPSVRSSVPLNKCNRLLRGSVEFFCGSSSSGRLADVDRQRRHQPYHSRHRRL
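Detergent-free condition (0.00005% Triton X-100) in acetate buffer pH 5.5 with DTT. 1.5 nM enzyme and compound were pre-mixed 15 min, then 2 uM Z-FR-AMC substrate added; reaction progress from fluorescence change between first and third reads (60 s).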
Lassa entry inh – blocks Lassa virus binding to or entry into cells; AID 540256; Lassa virus pseudotype entry inhibition, cell reporter; control for the full effect not named in the record; hit rate 1.2% among 300,000; Potency, µM (doses to about 37.9 µM), for inactives: at the highest dose activity change, negative = inhibition, most hits filed as inhibitors; active means well fitted inhibition curve with a large enough effect; inconclusive means small, poorly fitted or top-dose-only effect, or effect the other way; inactive means flat fitted curve, though single readings scatter; tested in HEK293 cells; also: % is scaled to controls: 0 for no effect and ±100 for the full control effect; nearly all actives have a fitted effect of over 50% in size; luciferase read-out
Cruzain inh Det – cruzain (T. cruzi) inhibition with detergent; Potency, µM, for the others: max response, negative = inhibition, most hits filed as inhibitors; purified cruzain, Z-FR-AMC fluorescence, 0.01% Triton; P25779; hit rate 0.43% among 200,000; active = well fitted curve in the direction sought with a large enough effect; inconclusive = small, poorly fitted or top-dose-only effect, or another doubt; inactive = no such curve, though single readings can be large; an effect the other way counts as inactive or inconclusive;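 also: plate controls were neutral wells for no effect and buffer without enzyme for full effect; nearly all actives have a fitted effect of over 40% in size; top concentration of the series not given in the record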
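Steps: dispense cruzain (1.5 nM final) in acetate buffer pH 5.5 with DTT and 0.01% Triton X-100; pin-transfer compounds; incubate 15 min RT; add Z-FR-AMC (2 uM final); read fluorescence every 30 s, using the 60 s intensity change.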
NS1 function inh – inhibitors of influenza NS1 protein function; AID 2326; hit rate 0.4% among 270,000; Potency, µM (titrated, usually from 46.1 µM), inactives show at the highest dose activity, positive = more growth; S. cerevisiae slowed by influenza A NS1, growth recovery by OD600; also: actives are rising curves; nearly all actives have a fitted effect of over 50% in size
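Growth recovery, yeast-based: influenza A NS1 expressed in S. cerevisiae causes slow growth, and suppressors are detected by OD600. The parent strain without NS1 is used as positive control.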
2A StopGo – FMDV 2A StopGo reporter, luciferase signal. human cells with a luciferase reporter of 2A StopGo recoding; control for the full effect not named in the record. Potency, µM (doses to about 57.9 µM), for inactives: top-dose signal change, negative = less light. AID 1159524. hit rate 1.2% among 410,000; active = well fitted falling curve with a large enough effect; inconclusive = small, poorly fitted or top-dose-only effect; inactive = no such curve, though single readings can be large or run the other way; tested in HEK293T cells; also: % is scaled to controls: 0 for no effect and ±100 for the full control effect; nearly all actives have a fitted effect of over 45% in size; luciferase light after 4 h
RE007 growth inh – less growth of the S. pombe RE007 Vpr strain | S. pombe RE007 Vpr strain, BacTiter-Glo ATP luminescence, 24 h; control for the full effect not named in the record | Potency, µM (doses to about 92.2 µM), without a hit: top-dose activity change, negative = less growth | hit rate 0.21% among 360,000 | AID 651644; active = well fitted falling curve with a large enough effect; inconclusive = small, poorly fitted or top-dose-only effect; inactive = no such curve, though single readings can be large or run the other way;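 also: % is scaled to controls: 0 for no effect and ±100 for the full control effect; nearly all actives have a fitted effect of over 50% in size; the assay follows cell death caused by Vpr and the record does not say whether a fall means rescue or toxicity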
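Fission yeast RE007 carrying one integrated HIV-1 vpr copy, seeded at OD 0.01 in PMG+AL medium with 23 nL pinned compound. Grown 24 h at 30 degrees; viability read by BacTiter-Glo luminescence after 5 min.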
The depositor's hits bear a star; & = joins results of further samples; [ ] = dose if it differs, or a comment. Unless noted, calls follow the shape of the dose curve; as a rule, active means well fitted rising curve with a large enough effect; inconclusive means small, poorly fitted or top-dose-only effect; inactive means no such curve, though single readings can be large or run the other way. Potency is read from the fitted curve at half-maximal effect. Rows are unselected (roughly 4.7% active in at least one column).

Results for COc1cccc(NC(=O)CCC2CCN(C(=O)c3cccc(NC(C)=O)c3)CC2)c1 ?
SARS PLP yeast: 0%; MARV entry inh: 28%; Lassa entry inh: 0%; NS1 function inh: -11%; 2A StopGo: -11%; RE007 growth inh: 11%

How did O=C(O)c1ccc(NC2=C(N3CCOCC3)C(=O)c3ccccc3C2=O)cc1 do in these assays?
SARS PLP yeast: -6%; MARV entry inh: -9%; Cruzain inh noDet: -4%; Lassa entry inh: 1%; Cruzain inh Det: -1.5%; NS1 function inh: 8%; 2A StopGo: -22%; RE007 growth inh: 12%

Results for Cc1ccc(/C=N/NC(=O)Cc2c(F)cccc2Cl)s1 ?
SARS PLP yeast: -1%; NS1 function inh: -8%; 2A StopGo: 14%; RE007 growth inh: 12%

Results for O=C(NC(=S)NCc1ccccc1Cl)c1cccs1 ?
SARS PLP yeast: -3%; MARV entry inh: -11%; Lassa entry inh: -24%; 2A StopGo: 32%[activator]; RE007 growth inh: -24%

Results for Cc1ccc(S(=O)(=O)NNC(=O)c2ccncc2)cc1[N+](=O)[O-] ?
SARS PLP yeast: -3%; MARV entry inh: 7%; Lassa entry inh: 10%; NS1 function inh: 8%; 2A StopGo: -6%; RE007 growth inh: 0%

What do the screens show for `CC(C)OC(=O)CC(=O)CSc1nc2c(cc1C#N)CCCCCC2`?
SARS PLP yeast: -3%; MARV entry inh: -8%[46.1 µM]; Cruzain inh noDet: 0%; Lassa entry inh: 1%; Cruzain inh Det: -12%; NS1 function inh: 12%; 2A StopGo: 12%; RE007 growth inh: -12%

Results for CCc1ccc(NCc2cc3cc4c(cc3n(CC(=O)Nc3ccc(OC)cc3)c2=O)OCO4)cc1 ?
Cruzain inh noDet: 2%; Lassa entry inh: inconclusive; Cruzain inh Det: -2.6%; 2A StopGo: -11%

What do the screens show for `Cc1ccc2c(C)c(C(=O)N(Cc3ccncc3)CC3CCCO3)oc2c1C` (stereo not given)?
SARS PLP yeast: 15%; MARV entry inh: inconclusive; Lassa entry inh: -5%; NS1 function inh: 10%; 2A StopGo: -14%; RE007 growth inh: -13%

What do the screens show for `Cc1ccc(Nc2ccc(-n3ccnc3)nn2)cc1C`?
SARS PLP yeast: -8%; MARV entry inh: -11%; Cruzain inh noDet: -6%; Lassa entry inh: inconclusive; Cruzain inh Det: 0.0%; NS1 function inh: -81%; 2A StopGo: 9%; RE007 growth inh: -15%

What do the screens show for `COc1cccc(CNCCSc2nnnn2C)c1OCc1ccccc1Cl`?
MARV entry inh: inconclusive; Cruzain inh noDet: 3%; Lassa entry inh: inconclusive; Cruzain inh Det: 0.4%; 2A StopGo: -13%

What do the screens show for `Cn1nnc2c[n+](CC(=O)c3ccc4ccccc4c3)cc(Br)c21`?
SARS PLP yeast: 3%; MARV entry inh: 11µM*; Lassa entry inh: inconclusive; NS1 function inh: -4%; 2A StopGo: inconclusive; RE007 growth inh: inconclusive

What do the screens show for `CCOc1ccc(CCNC(=O)COC(=O)Cn2cnc3c2c(=O)n(C)c(=O)n3C)cc1OCC`?
SARS PLP yeast: 6%; MARV entry inh: inconclusive; Lassa entry inh: 14%; 2A StopGo: -16%; RE007 growth inh: -9%

Results for NC(=O)CN1CCN(Cc2ccc3c(c2)OCO3)CC1 ?
SARS PLP yeast: -5%; MARV entry inh: inconclusive; Lassa entry inh: -22%; NS1 function inh: 7%; 2A StopGo: -21%; RE007 growth inh: 1%

Results for CN(C)c1ccc(CN2CCCC(O)C2)cc1 (stereo not given) ?
SARS PLP yeast: 17%; MARV entry inh: inconclusive; Cruzain inh noDet: -5%; Lassa entry inh: -2%; Cruzain inh Det: 1.9%; NS1 function inh: 8%; 2A StopGo: -7%; RE007 growth inh: 6%

How did CC1CCCN(S(=O)(=O)c2ccc3[nH]c(=O)cc(C(=O)NCCc4ccc(Cl)cc4)c3c2)C1 (stereo not given) do in these assays?
Cruzain inh noDet: -1%; Lassa entry inh: 29%[46.1 µM]; Cruzain inh Det: -1.2%; 2A StopGo: -7%

What do the screens show for `CC(=O)Nc1cccc(NC(=O)CSc2ccc(-c3ccco3)nn2)c1`?
SARS PLP yeast: 2%; NS1 function inh: 7%; 2A StopGo: -9%; RE007 growth inh: -11%

How did CCOC(=O)N1CC=C2C(C#N)=C(N)C(C#N)(C#N)[C@H](c3cccs3)[C@H]2C1 do in these assays?
SARS PLP yeast: 0%; MARV entry inh: -11%; Cruzain inh noDet: -19%; Lassa entry inh: -6%; Cruzain inh Det: -7.5%; NS1 function inh: 10%; 2A StopGo: inconclusive; RE007 growth inh: -22%

How did c1ccc(Cc2c[nH]c3ccccc23)cc1 do in these assays?
SARS PLP yeast: -3%; MARV entry inh: inconclusive; Lassa entry inh: -27%; NS1 function inh: -21%; 2A StopGo: 4%; RE007 growth inh: -12%

What do the screens show for `OCCNCC(O)Cn1ccc2ccccc21` (stereo not given)?
SARS PLP yeast: -2%; MARV entry inh: 9%; Cruzain inh noDet: -2%; Lassa entry inh: -5%; Cruzain inh Det: 5.5%; NS1 function inh: 1%; 2A StopGo: -14%; RE007 growth inh: -10%

How did Cc1ccc(C(=O)Nc2cnc3ccccc3c2)cc1 do in these assays?
SARS PLP yeast: 2%; MARV entry inh: inconclusive; Cruzain inh noDet: 1%; Lassa entry inh: 5µM*; Cruzain inh Det: -3.4%; NS1 function inh: -9%; 2A StopGo: 3.5µM*; RE007 growth inh: inconclusive

How did O=C(NCc1cccnc1)c1ccc(S(=O)(=O)N2CCCCC2)cc1 do in these assays?
SARS PLP yeast: 3%; MARV entry inh: -29%; Cruzain inh noDet: -7%; Lassa entry inh: 3%; Cruzain inh Det: 3.6%; NS1 function inh: 1%; 2A StopGo: -24%; RE007 growth inh: 10%

Results for COc1ccc(-c2noc(N(c3cccc(Cl)c3)c3nc(-c4ccc(OC)c(OC)c4)no3)n2)cc1OC ?
MARV entry inh: 6%[46.1 µM]; Cruzain inh noDet: -9%; Lassa entry inh: -4%[46.1 µM]; Cruzain inh Det: -1.1%; 2A StopGo: 3%

Results for COc1ccccc1-c1nc(SC)n[nH]1 ?
SARS PLP yeast: -3%; NS1 function inh: 1%; 2A StopGo: 38%[activator]; RE007 growth inh: -6%

What do the screens show for `CC(=O)Nc1ccc(S(=O)(=O)NCc2ccc(C(=O)NCc3ccc(Cl)cc3)cc2)cc1`?
SARS PLP yeast: -5%[6.58 µM]; MARV entry inh: 3%[46.1 µM]; Cruzain inh noDet: -15%&4%; Lassa entry inh: inconclusive; Cruzain inh Det: -8.1%&-2.2%; NS1 function inh: -1%; 2A StopGo: -16%; RE007 growth inh: -29%

What do the screens show for `Cc1cccc(OCc2ccccc2)n1`?
MARV entry inh: 12%[46.1 µM]; Lassa entry inh: 10%[46.1 µM]; 2A StopGo: 5%; RE007 growth inh: -6%

Results for CCC(Oc1ccccc1)C(=O)Nc1ccccc1OCc1cc(=O)n2ccccc2n1 (stereo not given) ?
Cruzain inh noDet: 6%; Lassa entry inh: 15%[46.1 µM]; Cruzain inh Det: 3.4%; 2A StopGo: -28%

How did Cc1cc(OC(C)C(=O)N2C[C@H]3C[C@@H](C2)c2cccc(=O)n2C3)c2c(C)c(C)c(=O)oc2c1 (stereo not given in full) do in these assays?
SARS PLP yeast: 13%; NS1 function inh: 14%; 2A StopGo: -1%; RE007 growth inh: 12%

How did CCOCCCNC(=O)C(c1ccc(OC)cc1)N(Cc1ccc2c(c1)OCO2)C(=O)CNC(C)=O (stereo not given) do in these assays?
SARS PLP yeast: 17%; MARV entry inh: inconclusive; Cruzain inh noDet: inconclusive; Lassa entry inh: -8%; Cruzain inh Det: 1.2%; NS1 function inh: -6%; 2A StopGo: -11%; RE007 growth inh: 19%

Results for NCCNc1ccc([N+](=O)[O-])c(NC2CC2)c1 ?
SARS PLP yeast: -15%; MARV entry inh: inconclusive; Cruzain inh noDet: 1%; Lassa entry inh: -5%; Cruzain inh Det: -2.2%; NS1 function inh: 4%; 2A StopGo: -19%; RE007 growth inh: -1%

Results for CC1Sc2ccc(S(=O)(=O)CCC(=O)NC3CCCC(C)C3C)cc2NC1=O (stereo not given) ?
SARS PLP yeast: -1%; NS1 function inh: 10%; 2A StopGo: inconclusive; RE007 growth inh: -3%

What do the screens show for `COc1cccc(N2CCN(c3c(C#N)c(C(F)(F)F)nn3C)CC2)c1`?
SARS PLP yeast: -10%; MARV entry inh: inconclusive; Cruzain inh noDet: -5%; Lassa entry inh: inconclusive; Cruzain inh Det: -4.3%; NS1 function inh: 4%; 2A StopGo: inconclusive; RE007 growth inh: -16%

What do the screens show for `CC(C)CCn1c(=O)c2sccc2n2c(CCCC(=O)N3CCC(N4CCCCC4)CC3)nnc12`?
SARS PLP yeast: 1%; NS1 function inh: 4%; 2A StopGo: -19%; RE007 growth inh: 5%

What do the screens show for `Cc1ccc(S(=O)(=O)N2CCCOC2CNC(=O)C(=O)NCc2ccccn2)cc1` (stereo not given)?
SARS PLP yeast: 3%; MARV entry inh: 6%; Lassa entry inh: 7%; NS1 function inh: 3%; 2A StopGo: -8%; RE007 growth inh: 0%

Results for Cc1ccc(SCC(=O)OCC(=O)NCc2ccco2)cc1 ?
SARS PLP yeast: -5%; MARV entry inh: 20%; Lassa entry inh: -7%; 2A StopGo: -8%; RE007 growth inh: 1%

What do the screens show for `CCCn1c(SCc2nc(-c3ccc(OC)c(OC)c3)no2)nnc1-c1ccccc1`?
MARV entry inh: 5.6µM*; Cruzain inh noDet: -8%; Lassa entry inh: -26%[46.1 µM]; Cruzain inh Det: -6.1%; 2A StopGo: -8%

How did Cn1ncc2c(=O)[nH]c(N)nc21 do in these assays?
MARV entry inh: -3%[46.1 µM]; Lassa entry inh: -9%[46.1 µM]; 2A StopGo: -11%; RE007 growth inh: 4%

How did O=C(O)C1CCCN1c1ncccc1[N+](=O)[O-] (stereo not given) do in these assays?
SARS PLP yeast: -3%; MARV entry inh: 0%[46.1 µM]; Lassa entry inh: -19%; NS1 function inh: 1%; 2A StopGo: -4%; RE007 growth inh: 3%
